Vaccinia stage = blocks a specific stage of Vaccinia orthopoxvirus infection, primary screen, cell-based, single point | activity change (mCherry), % (test concentration not listed) | Vaccinia-infected cells, mCherry/Venus stage reporter fluorescence; stronger effect = lower value; some inactives read as strong as hits | 89,000 compounds, 0.01% hits | AID 1053133, 2014;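 active = mCherry past -33% and 40 or more points under the early reporter, replicates agreeing; inconclusive = past -33% without that gap or agreement; tested in A549 cells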;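 also: scaled between vehicle wells and reference inhibitor wells; 23 nL library stock went into each well; one replicate is shown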
Vaccinia stage Venus = recorded beside Vaccinia stage, whose call it bears; activity change (Venus), %; measured here: Venus reporter, other viral stage;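 negative = less Venus signal; first of two replicates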
An asterisk follows results filed as active; ? = inconclusive; · = not tested or not shown. A portion of the library; count on the stated rates, not on these rows.

SMILES | Vaccinia stage | Vaccinia stage Venus
COc1ccc2c3c([nH]c2c1)[C@@H](CO)N(CC1CC1)CC31CN(C(=O)NC2CCCC2)C1 | 1 | 8
C[C@@H]1CN([C@H](C)CO)C(=O)Cc2cc(NC(=O)Nc3ccccc3)ccc2O[C@H]1CN(C)CC1CCCCC1 | -21 | -18
O=C(C1=C[C@H](c2ccc(Br)cc2)C[C@H](OCCCCO)O1)N1CCN(Cc2ccc3c(c2)OCO3)CC1 | ? | ·
CO[C@@H]1CN(C)C(=O)c2cc(NC(=O)Nc3ccc(F)cc3)ccc2OC[C@H](C)NC[C@@H]1C | 0 | -7
C/C=C/c1ccc([C@@H]2[C@@H](CO)N(C(C)=O)[C@@H]2CNC(=O)c2ccccc2)cc1 | -17 | -8
CN(C)CCCNC(=O)C[C@@H]1CC[C@H]2[C@@H](COC[C@@H](O)CN2CC2CCCC2)O1 | -10 | 2
C[C@@H]1CCCCO[C@@H](CN(C)Cc2ccc(Cl)c(Cl)c2)[C@@H](C)CN([C@H](C)CO)C(=O)c2cc(NC(=O)CCC(F)(F)F)ccc2O1 | -25 | -24
C[C@@H]1CCCCO[C@H](CN(C)C(=O)NC2CCCCC2)[C@@H](C)CN([C@H](C)CO)C(=O)c2cc(NC(=O)NC3CCCCC3)ccc2O1 | -25 | -25
COCC(=O)N1[C@H](CO)[C@H](c2ccc(-c3cccc(F)c3)cc2)[C@@H]1C#N | -6 | -6
COc1ccc2c3c([nH]c2c1)[C@H](CO)N(Cc1ccccc1)CC31CCN(C(=O)Nc2cccc(F)c2)CC1 | 1 | 3
COc1ccccc1NC(=O)N[C@@H]1CC[C@H](CCn2cc(C3(O)CCCC3)nn2)O[C@@H]1CO | 1 | 12
C[C@H]1CN([C@@H](C)CO)C(=O)Cc2cc(NC(=O)Nc3ccc(C(F)(F)F)cc3)ccc2O[C@H]1CN(C)C(=O)Nc1ccc(F)cc1 | -20 | -14

Some of these compounds in order of formula weight, largest number first.
SMILES | Vaccinia stage | Vaccinia stage Venus
COc1ccc2c3c([nH]c2c1)[C@H](CO)N(Cc1ccccc1)CC31CCN(C(=O)Nc2cccc(F)c2)CC1 | 1 | 3
COc1ccccc1NC(=O)N[C@@H]1CC[C@H](CCn2cc(C3(O)CCCC3)nn2)O[C@@H]1CO | 1 | 12
COc1ccc2c3c([nH]c2c1)[C@@H](CO)N(CC1CC1)CC31CN(C(=O)NC2CCCC2)C1 | 1 | 8
CN(C)CCCNC(=O)C[C@@H]1CC[C@H]2[C@@H](COC[C@@H](O)CN2CC2CCCC2)O1 | -10 | 2

(next part)
SMILES | Vaccinia stage | Vaccinia stage Venus
COc1ccc(S(=O)(=O)N(C)C[C@@H]2OCCCC[C@H](C)Oc3ccc(NS(=O)(=O)c4ccccc4)cc3C(=O)N([C@H](C)CO)C[C@@H]2C)cc1 | ? | ·
COc1ccc(CN(C)C[C@H]2OCCCC[C@H](C)Oc3ccc(NC(=O)Nc4ccc(C(F)(F)F)cc4)cc3C(=O)N([C@H](C)CO)C[C@H]2C)cc1 | ? | ·
O=C(Nc1ccc(Cl)cc1)N[C@@H]1CC[C@H](CCNC(=O)c2cc(Cl)cc(Cl)c2)O[C@@H]1CO | -27 | -22
C[C@@H]1CN([C@H](C)CO)C(=O)c2cc(NC(=O)Nc3ccc(F)cc3)ccc2O[C@@H](C)CCCCO[C@H]1CN(C)S(=O)(=O)c1ccc(Cl)cc1 | ? | ·
C[C@@H]1CN([C@H](C)CO)C(=O)c2ccccc2-c2ccccc2CO[C@H]1CN(C)S(=O)(=O)c1ccc([N+](=O)[O-])cc1 | -32 | -25
C[C@H]1CN([C@@H](C)CO)C(=O)c2c(c3ccccc3n2C)-c2ccccc2CO[C@@H]1CN(C)C(=O)[C@H]1CCCN1C | ? | ·
CCCNC(=O)N1[C@H](CO)[C@H](c2ccccc2)C12CN(C(=O)CC1CC1)C2 | 3 | 9
Cc1noc(C)c1NC(=O)Nc1cccc2c1O[C@H](CN(C)Cc1ccc(C(=O)O)cc1)[C@H](C)CN([C@H](C)CO)C2=O | 10 | 0
C[C@H](CO)N1C[C@H](C)[C@@H](CN(C)C(=O)Nc2ccc(F)cc2)Oc2ccc(NC(=O)Nc3ccc(F)cc3)cc2CC1=O | 8 | 10
COC(=O)C[C@@H]1CC[C@@H]2[C@@H](COc3ccc(NC(=O)NC(C)C)cc3C(=O)N2C)O1 | 9 | 5
C#Cc1ccc([C@@H]2C=C(C(=O)N3CCCCCCC3)O[C@H](OCCCCO)C2)cc1 | -1 | 5
CO[C@@H]1CN(C)C(=O)c2ccc(NC(=O)C3CC3)cc2OC[C@H](C)N(C(=O)c2ccncc2)C[C@H]1C | 7 | 6
Cc1noc(C)c1NC(=O)N(C)C[C@H]1Oc2c(NC(=O)Nc3ccc(C(F)(F)F)cc3)cccc2C(=O)N([C@H](C)CO)C[C@H]1C | 1 | -3
CCC(=O)N1[C@H](C(=O)Nc2ccccc2)[C@@H](CO)[C@@H]2Cn3c(ccc(C4=CCCC4)c3=O)[C@@H]21 | 6 | 17
CCC(=O)N(C)C[C@@H]1Oc2cc(-c3ccccc3C)ccc2S(=O)(=O)N([C@H](C)CO)C[C@@H]1C | -3 | 1
Cc1ccc(S(=O)(=O)Nc2cccc3c2O[C@@H](CN(C)Cc2ccc(Oc4ccccc4)cc2)[C@H](C)CN([C@@H](C)CO)C3=O)cc1 | ? | ·
CCC(=O)Nc1ccc2c(c1)C(=O)N(C)[C@H]1CC[C@H](CC(=O)NCC3CCCCC3)O[C@@H]1CO2 | 10 | 10
C[C@@H]1CN([C@H](C)CO)C(=O)c2cc(C#Cc3cccnc3)cnc2O[C@H]1CN(C)C | 17 | 6
COc1ccccc1-c1cnc2c(c1)C(=O)N([C@H](C)CO)C[C@@H](C)[C@@H](CN(C)Cc1ccccc1)O2 | -26 | -18
O=C(c1ccc2c(c1)OCO2)N1CC(=O)N2[C@H](CO)[C@@H](c3ccc(C#CCC4CCCC4)cc3)[C@@H]2C1 | ? | ·
C[C@H]1CCCCO[C@@H](CN(C)C(=O)Nc2ccc(F)cc2)[C@@H](C)CN([C@@H](C)CO)C(=O)c2cc(NS(=O)(=O)c3ccc(Cl)cc3)ccc2O1 | 10 | 4
CCNC(=O)C[C@H]1CC[C@H]2[C@@H](COC[C@@H](O)CN2C(=O)C2CC2)O1 | 7 | 8
C[C@@H]1CN([C@@H](C)CO)C(=O)c2cccc(NC(=O)Nc3ccc4c(c3)OCO4)c2O[C@@H]1CN(C)Cc1ccccc1 | 1 | -10
C[C@H](CO)N1C[C@H](C)[C@@H](CN(C)CC2CCCCC2)Oc2ccc(NC(=O)CCCCCC(=O)Nc3ccccc3N)cc2C1=O | -11 | -8
CNC[C@H]1OCCCC[C@H](C)Oc2ccc(NC(=O)c3ccccc3)cc2C(=O)N([C@H](C)CO)C[C@@H]1C | -3 | 1
CN1CCN(C(=O)C[C@@H]2CC[C@@H]3[C@H](COC[C@@H](O)CN3CC3CCCCC3)O2)CC1 | 12 | 5
O=C(C[C@@H]1CC[C@@H](NC(=O)c2ccccn2)[C@H](CO)O1)NCc1cccc(F)c1 | 5 | 10
C[C@@H]1CCCCO[C@H](CN(C)C(=O)Nc2ccc(F)cc2)[C@H](C)CN([C@@H](C)CO)C(=O)c2cc(NC(=O)c3ccncc3)ccc2O1 | 32 | 28
O=C(C[C@@H]1CC[C@@H](NC(=O)c2ccc(F)cc2)[C@@H](CO)O1)NCCc1ccncc1 | 11 | 7
COc1ccc(S(=O)(=O)N[C@H]2C=C[C@H](CC(=O)O)O[C@H]2CO)cc1 | -2 | -5
COCC#Cc1ccc([C@H]2[C@@H](CO)N3C(=O)CN(C(=O)C4CCCCC4)C[C@@H]23)cc1 | 5 | -1
Cc1ccc(S(=O)(=O)N(C)C[C@@H]2Oc3c(NC(=O)c4ccncc4)cccc3C(=O)N([C@H](C)CO)C[C@@H]2C)cc1 | 1 | 1
CCCN(C)C[C@@H]1Oc2cc(C#CC3CCCC3)ccc2S(=O)(=O)N([C@@H](C)CO)C[C@@H]1C | -15 | -14
O=C(C[C@@H]1CC[C@@H]2[C@H](COC[C@H](O)CN2Cc2ccc(Oc3ccccc3)cc2)O1)Nc1nccs1 | ? | ·
O=C(C[C@H]1C[C@@H]2c3cc(NC(=O)Nc4ccc(C(F)(F)F)cc4)ccc3O[C@@H]2[C@H](CO)O1)NCC1CC1 | -2 | 1
O=C(c1cccnc1)N1CC(=O)N2[C@H](CO)[C@H](c3ccc(C#CCC4CCCC4)cc3)[C@@H]2C1 | -10 | -35
C[C@@H]1CN([C@@H](C)CO)S(=O)(=O)c2ccc(-c3cccc(F)c3)cc2O[C@H]1CN(C)S(=O)(=O)c1ccccc1 | ? | ·
COc1ccccc1NC(=O)N[C@H]1CC[C@@H](CCNC(=O)Cc2ccccn2)O[C@H]1CO | 5 | 7
C[C@H]1CN([C@@H](C)CO)C(=O)c2cccc(NS(=O)(=O)c3ccccc3)c2O[C@H]1CN(C)Cc1ccc(C(=O)Nc2ccccc2N)cc1 | 3 | -4
O=C(N[C@@H]1CC[C@H](CCNC(=O)C2CCOCC2)O[C@@H]1CO)c1ccccn1 | 7 | 0
CC(C)CC#Cc1ccc2c(c1)O[C@@H](CN(C)Cc1cccc(F)c1)[C@@H](C)CN([C@H](C)CO)S2(=O)=O | -9 | -2
CN(C)CCCNC(=O)C[C@@H]1C=C[C@@H](NS(=O)(=O)c2ccccc2)[C@@H](CO)O1 | -3 | -6
CCCC(=O)Nc1ccc2c(c1)OC[C@@H](C)N(Cc1cncnc1)C[C@H](C)[C@H](OC)CN(C)C2=O | -3 | -4
CC(C)C#Cc1ccc([C@H]2[C@@H](CO)N3CCCCN(C(=O)c4ccc(F)cc4)C[C@@H]23)cc1 | -30 | -38
C[C@@H]1CN([C@@H](C)CO)C(=O)c2cc(C#Cc3ccccn3)cnc2O[C@H]1CN(C)CC1CCCC1 | 8 | 11
O=C(Nc1cccc(F)c1)N1CCCCN2[C@H](CO)[C@@H](c3ccc(-c4ccccc4F)cc3)[C@@H]2C1 | ? | ·
Cc1noc(C)c1NC(=O)Nc1cccc2c1O[C@@H](CN(C)C(=O)Nc1ccccc1)[C@H](C)CN([C@@H](C)CO)C2=O | 4 | 9
N#C[C@@H]1[C@H](c2ccc(C#CC3CCCCC3)cc2)[C@H](CO)N1C(=O)c1cccc(F)c1 | -5 | -4

5 entries picked at random from the list so far:
SMILES | Vaccinia stage | Vaccinia stage Venus
O=C(Nc1cccc(F)c1)N1CCCCN2[C@H](CO)[C@@H](c3ccc(-c4ccccc4F)cc3)[C@@H]2C1 | ? | ·
N#C[C@@H]1[C@H](c2ccc(C#CC3CCCCC3)cc2)[C@H](CO)N1C(=O)c1cccc(F)c1 | -5 | -4
O=C(N[C@@H]1CC[C@H](CCNC(=O)C2CCOCC2)O[C@@H]1CO)c1ccccn1 | 7 | 0
CCCC(=O)Nc1ccc2c(c1)OC[C@@H](C)N(Cc1cncnc1)C[C@H](C)[C@H](OC)CN(C)C2=O | -3 | -4
CC(C)C#Cc1ccc([C@H]2[C@@H](CO)N3CCCCN(C(=O)c4ccc(F)cc4)C[C@@H]23)cc1 | -30 | -38

Carrying on:
SMILES | Vaccinia stage | Vaccinia stage Venus
CO[C@H]1CN(C)C(=O)c2ccc(NS(=O)(=O)c3cccc(F)c3)cc2OC[C@H](C)N(Cc2cc(F)ccc2F)C[C@H]1C | ? | ·
C[C@@H]1CN([C@H](C)CO)C(=O)c2cc(NC(=O)CCN3CCOCC3)ccc2O[C@@H]1CN(C)Cc1ccc(C(F)(F)F)cc1 | -10 | -8
CO[C@H]1CN(C)C(=O)c2ccc(NS(C)(=O)=O)cc2OC[C@@H](C)N(C(=O)C2CCC2)C[C@@H]1C | -2 | 0
COc1cccc(C(=O)Nc2ccc3c(c2)OC[C@@H](C)N(C)C[C@@H](C)[C@H](OC)CN(C)C3=O)c1 | 22 | 15
COC(=O)C[C@H]1CC[C@H]2[C@H](COc3ccc(NC(=O)c4ccc(F)c(F)c4)cc3C(=O)N2C)O1 | -1 | -1
C[C@@H]1CN([C@@H](C)CO)C(=O)c2c(c3ccccc3n2C)-c2ccccc2CO[C@@H]1CN(C)C(=O)Nc1cccc(Cl)c1Cl | ? | ·
C[C@@H]1CN([C@H](C)CO)C(=O)c2cc(NC(=O)NC3CCCCC3)ccc2O[C@@H](C)CCCCO[C@@H]1CN(C)S(=O)(=O)c1ccc(F)cc1 | 12 | 10
COc1ccccc1CNC(=O)C[C@H]1C[C@H]2c3cc(NC(=O)C4CCC4)ccc3O[C@H]2[C@H](CO)O1 | 4 | -1
CC(C)C#Cc1cnc2c(c1)C(=O)N([C@H](C)CO)C[C@H](C)[C@@H](CN(C)Cc1ccc3c(c1)OCO3)O2 | 6 | -11
C[C@@H]1CN([C@H](C)CO)C(=O)CCCn2nncc2CO[C@@H]1CN(C)C(=O)Oc1ccc2ccccc2c1 | -4 | 0
CO[C@H]1CN(C)C(=O)c2ccc(NC(=O)Nc3cccc(F)c3)cc2OC[C@@H](C)NC[C@H]1C | -8 | -8
C[C@H](CO)N1C[C@H](C)[C@@H](CN(C)C(=O)NC2CCCCC2)Oc2ccc(N(C)C)cc2C1=O | 26 | 7
CN(C)CCCNC(=O)[C@@H]1[C@@H](CO)[C@@H]2Cn3c(ccc(-c4cccc(C(=O)N(C)C)c4)c3=O)[C@H]1N2 | -6 | -4
CC(C)NC(=O)N1[C@@H](CO)[C@@H]2c3ccccc3N(C)C[C@@H]21 | 9 | 1
CCCC(=O)N1C[C@H]2[C@@H](c3ccccc31)[C@@H](CO)N2C(=O)CC1CC1 | -7 | -2
Cc1noc(C)c1NC(=O)N(C)C[C@H]1Oc2ncc(C#CCN(C)C)cc2C(=O)N([C@@H](C)CO)C[C@@H]1C | 16 | 11
C[C@H]1CN([C@@H](C)CO)C(=O)c2cc(NS(=O)(=O)c3cccs3)ccc2O[C@H]1CN(C)S(C)(=O)=O | 35 | 24
CN1c2ccc(Br)cc2[C@H]2[C@H](CCN2C(=O)C2CCC2)[C@H]1CO | -16 | -5

High-throughput results deposited in PubChem BioAssay by Broad Institute.
